# mut p53 SMM: binders of human mutant p53. small molecule microarray binding, anti-GST fluorescence. calls only. actives 0.4% (n = 17,000). AID 624136;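 active means compounds whose four printed spots each glow above background more than chance allows, each with a p-value under 7%; compounds were printed on slides so no solution concentration is given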;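 further: about 2 pmol printed per array spot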
# ID4 SMM: ID4 (human) binding. P47928. small molecule microarray, Flag-ID4 binding, fluorescence F/B. calls only. actives 1.2% (n = 31,000);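 active means spot signal over background at p below 0.07 in all four prints; compounds were printed on slides so no solution concentration is given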;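 further: a binder raises fluorescence above local background on the spot; about 2 pmol printed per array spot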
# Target sequence (P47928 whole entry, looked up): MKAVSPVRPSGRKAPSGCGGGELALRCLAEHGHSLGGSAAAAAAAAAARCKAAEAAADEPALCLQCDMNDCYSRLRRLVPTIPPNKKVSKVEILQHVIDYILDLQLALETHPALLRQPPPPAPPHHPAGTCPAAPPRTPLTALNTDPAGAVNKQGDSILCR
# STAT3 SMM: binds human STAT3 on microarray. Small molecule microarray, His-STAT3 binding, anti-His fluorescence. actives 0.2% (n = 17,000). AID 624138. P40763. calls only;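 active means compounds whose four printed spots each show fluorescence over background unusually high for their array block, chance value under 7%; compounds were printed on slides so no solution concentration is given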;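 further: about 2 pmol printed per array spot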
# c-Myc SMM: c-Myc (human) binding. P01106. small molecule microarray, His-c-Myc binding, anti-His fluorescence. calls only. actives 1.5% (n = 17,000). AID 624141;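 active means spot fluorescence over background with P-value below 7% in all four replicate spots, showing protein binding; compounds were printed on slides so no solution concentration is given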;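 further: score is binary with 100 for all four spots passing and 0 otherwise; about 2 pmol printed per array spot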
# Target sequence (P01106 whole entry, looked up): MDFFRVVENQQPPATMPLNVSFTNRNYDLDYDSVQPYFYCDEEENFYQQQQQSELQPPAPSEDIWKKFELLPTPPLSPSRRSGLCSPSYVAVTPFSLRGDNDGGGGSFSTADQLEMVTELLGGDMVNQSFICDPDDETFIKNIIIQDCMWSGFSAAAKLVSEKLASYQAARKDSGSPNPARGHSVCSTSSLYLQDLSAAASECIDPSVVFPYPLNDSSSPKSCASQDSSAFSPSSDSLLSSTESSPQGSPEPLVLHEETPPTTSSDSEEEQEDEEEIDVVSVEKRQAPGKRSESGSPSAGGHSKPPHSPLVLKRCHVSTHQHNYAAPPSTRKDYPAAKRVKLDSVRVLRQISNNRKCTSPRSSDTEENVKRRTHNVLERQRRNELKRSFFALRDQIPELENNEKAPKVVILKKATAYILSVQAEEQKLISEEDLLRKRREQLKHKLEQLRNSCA
# Calls only; i = inactive; . = not tested or not shown; + = active, no number.
structure	mut p53 SMM	ID4 SMM	STAT3 SMM	c-Myc SMM
COc1ccc2c(c1)c(/C=C/c1nc3ccc(I)cc3c(=O)n1CCCO)c(C)n2C	i	i	i	i
Cc1noc(C)c1NC(=O)Nc1cccc2c1O[C@H](CN(C)C)[C@H](C)CN([C@H](C)CO)C2=O	i	i	i	i
OC[C@H]1O[C@@H](OCc2ccccc2)[C@H](O)[C@@H](O)[C@@H]1O	i	i	i	i
C[C@H]1CN([C@@H](C)CO)C(=O)c2cccc(NS(=O)(=O)c3ccccc3)c2O[C@@H]1CN(C)C(=O)Nc1cccc2ccccc12	i	i	i	i
C[C@@H]1CN([C@@H](C)CO)C(=O)c2cc(NC(=O)Nc3ccc(C(F)(F)F)cc3)ccc2O[C@@H](C)CCCCO[C@H]1CN(C)Cc1ccc(C(F)(F)F)cc1	i	.	i	i
CC(C)=CCN(C(=O)C#Cc1ccccc1)[C@H](CO)c1ccccc1	i	i	i	i
C[C@@H]1CN([C@H](C)CO)C(=O)Cc2cc(NC(=O)Nc3ccc(F)cc3)ccc2O[C@H]1CN(C)Cc1ccc2c(c1)OCO2	i	.	i	i
CNC[C@@H]1OCCCC[C@H](C)Oc2ccc(NS(C)(=O)=O)cc2C(=O)N([C@@H](C)CO)C[C@H]1C	i	.	i	i
Cc1ccc(S(=O)(=O)NC2CCN(Cc3cccc(OCCO)c3)CC2)cc1	i	.	i	i
CC#CC#C/C=C1\C=CC2(OC=CC2OC(=O)C=C(C)C)O1 (configuration not stated)	i	i	i	i
C[C@H]1CN([C@@H](C)CO)C(=O)Cc2cc(NS(=O)(=O)c3ccccc3)ccc2O[C@@H]1CN(C)C(=O)Nc1ccccc1	i	i	i	i
O=C1c2cccc3cccc(c23)C(=O)N1CCCSc1ncn[nH]1	i	i	i	+
Cc1noc(C)c1NC(=O)N(C)C[C@@H]1Oc2ccc(NC(=O)CCN3CCOCC3)cc2CC(=O)N([C@H](C)CO)C[C@@H]1C	i	i	i	i
Cc1c(NS(=O)(=O)c2cccc3nonc23)c(=O)n(-c2ccccc2)n1C	i	i	i	i
COc1ccc(S(=O)(=O)Nc2ccc3c(c2)C(=O)N([C@H](C)CO)C[C@@H](C)[C@@H](CN(C)S(=O)(=O)c2cccs2)O3)cc1	i	i	i	i
C=CCN1C(=O)[C@]2(O[C@H](CCO)[C@@H]([Si](C)(C)c3ccc(OC)cc3)[C@@H]2C)c2cc(N3CCOC3=O)ccc21	i	.	i	i
C[C@@H]1CN([C@H](C)CO)C(=O)c2cccc(N(C)C)c2O[C@H]1CN(C)S(=O)(=O)c1ccc(Cl)cc1	i	i	i	i
C[C@H](CO)N1C[C@H](C)[C@H](CN(C)C(=O)Nc2ccc(F)cc2)Oc2ncccc2C1=O	i	i	i	i
C[C@@H]1O[C@@H](O[C@H]2[C@H](O[C@H]3CC[C@@]4(C)C(CC[C@]5(C)C4C=C[C@]46OC[C@@]7(CCC(C)(C)C[C@H]74)[C@@H](O)C[C@]65C)[C@]3(C)CO)O[C@H](CO)[C@@H](O)[C@@H]2O[C@@H]2O[C@H](CO)[C@@H](O[C@@H]3O[C@@H](C)[C@H](O)[C@@H](O)[C@H]3O)[C@H](O)[C@H]2O)[C@H](O)[C@H](O)[C@H]1O (some centres not stated)	i	.	i	+
C[C@H](CO)N1C[C@H](C)[C@H](CN(C)C(=O)Nc2ccc(F)cc2)OCCCC[C@H](C)Oc2ccc(NS(=O)(=O)c3ccccc3)cc2C1=O	i	i	i	i
Cc1c(O)c(=O)n(-c2ccccc2)n1C	i	i	i	i
N#Cc1ccsc1NC(=O)CSc1ncn[nH]1	i	i	i	i
COC(=O)c1ccccc1NC(=O)CSc1nnc(-c2ccccc2O)n1-c1ccccc1	i	i	i	i
O=C(Cn1c(-c2ccccn2)nc2ccccc21)NCc1ccccc1	i	i	i	i
C[C@@H]1CN([C@@H](C)CO)C(=O)CCCn2nncc2CO[C@H]1CN(C)C(=O)Nc1ccc(C(C)(C)C)cc1	i	i	i	i
Cc1noc(C)c1S(=O)(=O)N(C)C[C@H]1OCCCC[C@@H](C)Oc2ccc(NC(=O)NC(C)C)cc2C(=O)N([C@H](C)CO)C[C@@H]1C	i	i	i	i
C[C@H](CO)N1C[C@H](C)[C@H](CN(C)S(C)(=O)=O)OCCCC[C@H](C)Oc2ccc(NS(=O)(=O)c3ccccc3)cc2C1=O	i	i	i	i
C[C@H]1CCCCO[C@H](CN(C)C(=O)Nc2ccc(C(F)(F)F)cc2)[C@@H](C)CN([C@@H](C)CO)C(=O)c2cc(NS(C)(=O)=O)ccc2O1	i	i	+	+
COc1c(C(C)C)oc2cc3oc(=O)ccc3cc12	i	i	i	i
C[C@H]1CN([C@@H](C)CO)C(=O)c2cccc(NS(=O)(=O)c3cccs3)c2O[C@@H]1CN(C)S(=O)(=O)c1ccc(Cl)cc1	i	i	i	i
Cc1c(Br)ccc(NC(=O)Cn2cnc3sc4c(c3c2=O)CCCC4)c1C	i	i	i	i
CC1(C)CC(=O)C2=C(C1)NC(=O)CC2c1ccc(N(CCC#N)CCC#N)cc1 (configuration not stated)	i	i	i	i
C[C@@H]1CCCCO[C@H](CN(C)C)[C@H](C)CN([C@@H](C)CO)C(=O)c2cc(NC(=O)c3ccncc3)ccc2O1	i	i	i	i
C[C@H](CO)N1C[C@H](C)[C@H](CN(C)C)Oc2ccc(NC(=O)Nc3cccc4ccccc34)cc2C1=O	i	i	i	i
O=C(CSc1nc2sccc2c(=O)[nH]1)Nc1ccccc1	i	i	i	i
COc1cccc2cc(-c3nnc(SCC(=O)N4c5ccccc5Sc5ccccc54)n3C)oc12	i	i	i	i
Cc1noc(C)c1NC(=O)Nc1cccc2c1O[C@H](CN(C)S(=O)(=O)c1cn(C)cn1)[C@@H](C)CN([C@@H](C)CO)C2=O	i	i	i	i
Cc1noc(C)c1NC(=O)N(C)C[C@H]1OCCCC[C@@H](C)Oc2ccc(NC(=O)c3ccncc3)cc2C(=O)N([C@@H](C)CO)C[C@H]1C	i	i	i	i
COc1ccc(NC(=O)Nc2ccc3c(c2)C(=O)N([C@@H](C)CO)C[C@@H](C)[C@@H](CN(C)C)O3)cc1	i	i	i	i
C[C@@H]1CN([C@H](C)CO)C(=O)c2cccc(NS(=O)(=O)c3cccs3)c2O[C@@H]1CN(C)Cc1ccc(Cl)c(Cl)c1	i	i	i	i
COc1ccc(CN(C)C[C@H]2Oc3c(NS(=O)(=O)c4cccs4)cccc3C(=O)N([C@H](C)CO)C[C@@H]2C)cc1	i	i	i	i
C[C@H]1CCCCO[C@@H](CN(C)C(=O)C2CCCCC2)[C@@H](C)CN([C@@H](C)CO)C(=O)c2cc(NS(=O)(=O)c3ccccc3)ccc2O1	i	i	i	i
COc1ccc(S(=O)(=O)N(C)C[C@@H]2Oc3c(NS(=O)(=O)c4cn(C)cn4)cccc3C(=O)N([C@@H](C)CO)C[C@@H]2C)cc1	i	i	i	i
COc1ccc([C@H]2C=C(C(=O)O)O[C@@H](OCCCCO)C2)cc1	i	i	i	i
C[C@H](CO)N1C[C@H](C)[C@@H](CN(C)Cc2ccc3c(c2)OCO3)Oc2ccc(NC(=O)Nc3ccc(F)cc3)cc2C1=O	i	i	i	i

# Entries above containing a thiophene ring, fused or not:
structure	mut p53 SMM	ID4 SMM	STAT3 SMM	c-Myc SMM
COc1ccc(S(=O)(=O)Nc2ccc3c(c2)C(=O)N([C@H](C)CO)C[C@@H](C)[C@@H](CN(C)S(=O)(=O)c2cccs2)O3)cc1	i	i	i	i
N#Cc1ccsc1NC(=O)CSc1ncn[nH]1	i	i	i	i
C[C@H]1CN([C@@H](C)CO)C(=O)c2cccc(NS(=O)(=O)c3cccs3)c2O[C@@H]1CN(C)S(=O)(=O)c1ccc(Cl)cc1	i	i	i	i
Cc1c(Br)ccc(NC(=O)Cn2cnc3sc4c(c3c2=O)CCCC4)c1C	i	i	i	i
O=C(CSc1nc2sccc2c(=O)[nH]1)Nc1ccccc1	i	i	i	i
C[C@@H]1CN([C@H](C)CO)C(=O)c2cccc(NS(=O)(=O)c3cccs3)c2O[C@@H]1CN(C)Cc1ccc(Cl)c(Cl)c1	i	i	i	i
COc1ccc(CN(C)C[C@H]2Oc3c(NS(=O)(=O)c4cccs4)cccc3C(=O)N([C@H](C)CO)C[C@@H]2C)cc1	i	i	i	i

# More results
structure	mut p53 SMM	ID4 SMM	STAT3 SMM	c-Myc SMM
O=C1O[C@@H](c2ccccc2)[C@@H](c2ccccc2)N2[C@@H](c3ccccc3OCCO)[C@]3(C(=O)Nc4ccc(C#CCCO)cc43)[C@@H](C(=O)NC[C@H](O)c3ccccc3)[C@H]12	i	.	i	i
COc1cccc(OC)c1C(=O)NC(=S)NCc1cccnc1	i	i	i	i
COCCOC(=O)N1C(=O)[C@@]2(c3cc(C#CCCO)ccc31)[C@H](c1ccccc1OCCO)N1[C@H](c3ccccc3)[C@H](c3ccccc3)OC(=O)[C@H]1[C@@H]2C(=O)N1CCN(c2ncccn2)CC1	i	i	i	i
C[C@@H]1CN([C@H](C)CO)C(=O)Cc2cc(NC(=O)Cc3ccccc3)ccc2O[C@@H]1CN(C)S(=O)(=O)c1cn(C)cn1	i	i	i	i
Cc1noc(C)c1S(=O)(=O)Nc1ccc2c(c1)CC(=O)N([C@H](C)CO)C[C@@H](C)[C@@H](CN(C)C)O2	i	i	i	i
COc1cc2c(cc1OC)CN(C(=O)[C@@H]1[C@H]3C(=O)O[C@H](c4ccccc4)[C@H](c4ccccc4)N3[C@H](c3ccc(OCCO)cc3)[C@@]13C(=O)Nc1ccccc13)CC2	i	.	i	i
COC1=CC(=O)CC(C)C12Oc1cc(OC)cc(O)c1C2=O (configuration not stated)	i	i	i	i
C[C@@H]1CN([C@@H](C)CO)C(=O)c2cc(NC(=O)Cn3cnnn3)ccc2O[C@@H]1CN(C)CC1CC1	i	i	i	i
CCCCCC[C@@H]([C@@H](C)O)n1cnc2c(N)ncnc21	i	i	i	i
COCCNc1ncnc2c1oc1ccccc12	i	i	i	i
Cc1noc(C)c1NC(=O)Nc1ccc2c(c1)C(=O)N([C@H](C)CO)C[C@@H](C)[C@H](CN(C)Cc1ccccc1)O2	i	i	i	i
C[C@@H]1CCCCO[C@H](CN(C)C)[C@H](C)CN([C@H](C)CO)C(=O)c2cc(NC(=O)CCCN(C)C)ccc2O1	i	i	i	i
Cc1coc(C)c1C(=O)CC1(O)C(=O)N(Cc2ccccc2)c2ccccc21 (configuration not stated)	i	i	i	i
C[C@@H]1CCCCO[C@@H](CN(C)Cc2ccc(C(=O)O)cc2)[C@H](C)CN([C@@H](C)CO)C(=O)c2cc(NC(=O)c3ccncc3)ccc2O1	i	i	i	i
CC(C)NC(=O)Nc1ccc2c(c1)C(=O)N([C@H](C)CO)C[C@H](C)[C@@H](CN(C)S(=O)(=O)c1cccs1)OCCCC[C@@H](C)O2	i	i	i	i
C[C@@H]1CCCCO[C@H](CN(C)S(=O)(=O)c2ccc(F)cc2)[C@@H](C)CN([C@H](C)CO)C(=O)c2cc(NC(=O)c3ccncc3)ccc2O1	i	i	i	i
COc1cc(SC)ccc1-c1nc2ccncc2[nH]1	i	i	i	i
O=C(NCc1nc2ccccc2[nH]1)C1=C[C@@H](c2ccc3c(c2)OCO3)C[C@@H](OCc2ccc(CO)cc2)O1	i	i	i	i
C[C@@H]1CN([C@H](C)CO)C(=O)c2cccc(NC(=O)NC3CCCCC3)c2O[C@H]1CN(C)S(=O)(=O)c1cn(C)cn1	i	i	i	i
COc1ccccc1C(=O)Nc1ccccc1C(=O)NCc1ccco1	i	i	i	i
C[C@@H]1CCCCO[C@H](CN(C)C)[C@H](C)CN([C@@H](C)CO)C(=O)c2cc(NC(=O)Cc3ccccc3)ccc2O1	i	i	i	i
Cc1cnn(CCCNC(=O)c2cc(-c3cccnc3)nc3ccc(Cl)cc23)c1	i	i	i	i
CCC(Oc1nc2ccccc2nc1-c1ccccc1NC(C)=O)C(=O)c1ccccc1 (configuration not stated)	i	i	i	i
C/C(=C/CO)CC[C@@H]1[C@@](C)(O)CCC2C(C)(C)CCC[C@]21C (some centres not stated)	i	i	i	i
COC(=O)Nc1ccc2[nH]cc(CCNC(C)=O)c2c1	i	i	i	i
COc1ccc(C#Cc2cnc3c(c2)C(=O)N([C@H](C)CO)C[C@H](C)[C@H](CN(C)S(=O)(=O)c2ccc(C)cc2)O3)cc1OC	i	.	i	i
C[C@@H]1CCCCO[C@@H](CN(C)Cc2ccc(C(F)(F)F)cc2)[C@@H](C)CN([C@H](C)CO)C(=O)c2cc(NC(=O)C3CCCCC3)ccc2O1	i	.	i	i
CCOc1ncnc2ccc(Br)cc12	i	i	i	i
CC/C(=C(/c1ccccc1)c1ccc(OCCN(C)C)cc1)c1ccccc1	i	i	i	i
O=C(O)CC/C=C/CC1COC(c2ccccc2Cl)OC1c1ccccc1O (configuration not stated)	i	i	i	i
CNCCCC12CCC(c3ccccc31)c1ccccc12	i	i	i	i
C[C@H](CO)N1C[C@H](C)[C@@H](CN(C)C(=O)Nc2ccc(F)cc2)Oc2ccc(NS(=O)(=O)c3cn(C)cn3)cc2C1=O	i	i	i	i

# High-throughput results: PubChem, Broad Institute
